Menin-MLL FL inh = qHTS Assay for Inhibitors Targeting the Menin-MLL Interaction in MLL Related Leukemias: Competition With Fluorescein Labeled MLL-derived Peptide; AID 1766, 2009; Fluorescence polarization, fluorescein-MLL peptide displacement from menin; 290,000 tested, under 10 active; FP activity change, % at 61.4 µM; inconclusive = falling polarisation curve, or a change in total fluorescence; inactive = total fluorescence flat and polarisation flat or rising; no compound was filed as active; the % refers to the polarisation; negative = inhibition;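 note: % of control where 0% means no effect; inhibitors lower the polarisation; unlabelled MLL peptide was the positive control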
CtBP-E1A inh = qHTS Assay for Inhibitors of the CtBP/E1A Interaction. 340,000 compounds, 0.49% hits. AID 651724, 2012. AlphaScreen GST-E1A/His-CtBP binding, 1536-well; active compounds read low; control for the full effect not named in the record. CtBP / adenovirus E1A interaction (AlphaScreen). activity change, % (no concentration beside the values); in the data active means activity change below about -65%; inconclusive means about -30% to -65%; inactive means above about -30%; note: % is set by controls: 0 for no effect and ±100 for the full control effect
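Steps: dispense buffer (Tris pH 8.0, NaCl 300 mM, TCEP 1 mM, BSA, Tween 20); add 5X protein mix (GST-E1A, His-CtBP, 125 nM each); pin 23 nL compound; 2 h at 37 °C, dark; add 5X beads (50 ug/mL); 1 h; read.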
Sfp PPTase inh = qHTS Assay for Inhibitors of Bacillus subtilis Sfp phosphopantetheinyl transferase (PPTase). 310,000 compounds, 3.5% hits. 4'-phosphopantetheinyl transferase ffp (Bacillus subtilis), Q9F4F7. Biochemical Sfp PPTase activity, qHTS. Potency, µM, inactives show max response, negative = inhibition, usual class: inhibitors; active = well fitted inhibition curve with a large enough effect; inconclusive = small, poorly fitted or top-dose-only effect, or another doubt; inactive = no such curve, though single readings can be large or run the other way;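 note: the enzyme is Sfp with the accession as filed and its product quenches rhodamine fluorescence; potency is the fitted concentration of half-maximal effect; 0% = enzyme reaction without inhibitor and -100% = no enzyme wells; top concentration of the series not given in the record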
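Fluorescence-quenching assay with 15 nM Sfp, 5 uM rhodamine-CoA and 12.5 uM BHQ-2-labelled ybbR peptide in pH 7.6 Hepes/MgCl2 buffer. Enzyme was pre-incubated with compound for 15 min at room temperature. Rate was taken from the 30-min fluorescence change (525/598 nm).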
TRPV1 PAM = HTS Assay for Compounds that Act as Potentiators of the Vanilloid Receptor 1; Transient receptor potential cation channel subfamily V member 1 (Homo sapiens), Q8NER1; TRPV1-expressing cells, Fluo-8 calcium influx, capsaicin EC20 potentiation; host cell line not named in the record; control for the full effect not named in the record; potentiation, % at 8.33 µM; 320,000 compounds, 0.02% hits; AID 540277, 2011; active means potentiation above 80%; inconclusive means 30% to 80%; inactive means below 30%; note: 0% is about no effect
Target sequence (Q8NER1 whole entry, looked up): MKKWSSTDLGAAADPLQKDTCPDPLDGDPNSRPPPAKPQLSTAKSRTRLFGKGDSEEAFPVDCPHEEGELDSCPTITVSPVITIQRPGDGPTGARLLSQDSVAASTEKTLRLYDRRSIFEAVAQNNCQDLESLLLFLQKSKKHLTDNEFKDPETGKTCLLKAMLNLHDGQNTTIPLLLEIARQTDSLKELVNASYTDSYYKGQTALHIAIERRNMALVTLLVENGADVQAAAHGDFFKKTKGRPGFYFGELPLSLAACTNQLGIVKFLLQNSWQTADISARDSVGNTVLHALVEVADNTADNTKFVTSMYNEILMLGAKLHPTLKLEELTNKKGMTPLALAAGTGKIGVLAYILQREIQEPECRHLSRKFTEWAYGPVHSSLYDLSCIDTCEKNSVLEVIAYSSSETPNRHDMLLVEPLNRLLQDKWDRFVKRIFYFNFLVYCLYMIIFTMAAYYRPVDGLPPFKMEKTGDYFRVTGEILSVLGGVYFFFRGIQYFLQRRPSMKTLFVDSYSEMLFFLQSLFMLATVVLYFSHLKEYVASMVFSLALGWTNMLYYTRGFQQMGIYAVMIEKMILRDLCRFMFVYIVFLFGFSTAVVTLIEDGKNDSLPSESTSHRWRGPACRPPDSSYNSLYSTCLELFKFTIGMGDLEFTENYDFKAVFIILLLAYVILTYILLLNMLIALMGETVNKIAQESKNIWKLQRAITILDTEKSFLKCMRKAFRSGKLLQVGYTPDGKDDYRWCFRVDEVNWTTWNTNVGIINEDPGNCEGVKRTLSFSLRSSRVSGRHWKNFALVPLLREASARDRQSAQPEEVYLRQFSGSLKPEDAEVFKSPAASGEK
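TRPV1-expressing cells were cultured overnight at 35.5C and loaded with Fluo-8 calcium dye for 40 to 90 min at room temperature. After a 10 s baseline, compound was added and calcium influx was read kinetically for 3 min (ex 480/em 520 nm).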
gsp agonist = qHTS for Agonist of gsp, the Etiologic Mutation Responsible for Fibrous Dysplasia/McCune-Albright Syndrome: qHTS. 340,000 compounds, 0.13% hits. gsp mutant cells, cAMP HTRF, 30 min; control for the full effect not named in the record. Potency, µM (top dose mostly 76.9 µM), for inactives: at the top dose activation (cAMP increase), actives largely listed as activators; active = well fitted activation curve with a large enough effect; inconclusive = small, poorly fitted or top-dose-only effect, or another doubt; inactive = no such curve, though single readings can be large or run the other way; cell line not stated here;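 note: phosphodiesterase inhibitor Ro 20-1724 added with compounds to block cAMP breakdown; potency is the fitted concentration of half-maximal effect; nearly all actives have a fitted effect of over 60% in size; about a fifth of the inactives were tested at one dose only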
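Cells in DMEM/10% FBS with G418 were pretreated with compounds in DMSO plus […] (300 uM stock) for 30 min at 37C. cAMP was measured by HTRF (cAMP-d2 plus anti-cAMP antibody-K) after 30 min at room temperature.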
gsp antag = qHTS for Antagonists of gsp, the Etiologic Mutation Responsible for Fibrous Dysplasia/McCune-Albright Syndrome: qHTS | gsp-mutant cells, cAMP HTRF, 30 min; control for the full effect not named in the record | Potency, µM (series often up to 76.9 µM), for inactives: at the top dose activity change, negative = inhibition, actives largely listed as inhibitors | 340,000 compounds, 0.4% hits | AID 624288, 2012; active = falling curve of any shape with a large fitted effect; inconclusive = falling curve, mostly with a smaller effect; inactive = flat or rising curve; cell line not stated here;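 note: intracellular cAMP measured with PDE inhibitor Ro 20-1724 present during compound exposure; potency is the fitted concentration of half-maximal effect; % is set by controls: 0 for no effect and ±100 for the full control effect; nearly all actives have a fitted effect of over 65% in size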
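Measurement of cellular cAMP by homogeneous time-resolved fluorescence following a 30 min compound exposure at 37C. The PDE inhibitor […] was present throughout; the assay buffer was DPBS with 0.05% BSA and 0.005% Tween 20.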
ClpP mod = qHTS Assay for Activators of ClpP | ATP-dependent Clp protease proteolytic subunit (Bacillus subtilis (strain 168)), P80244 | purified B. subtilis ClpP, FRET peptide cleavage, 20 min | Potency, µM (doses to about 57.5 µM), for inactives: top-dose activity change, negative = active | 340,000 compounds, 1.9% hits; active = well fitted falling curve with a large enough effect; inconclusive = small, poorly fitted or top-dose-only effect; inactive = no such curve, though single readings can be large or run the other way; note: potency is the fitted concentration of half-maximal effect; the source files actives as falling curves though it sought activators and does not explain the sign; nearly all actives have a fitted effect of over 65% in size; many hits overshoot -100%
Target sequence (P80244 whole entry, looked up): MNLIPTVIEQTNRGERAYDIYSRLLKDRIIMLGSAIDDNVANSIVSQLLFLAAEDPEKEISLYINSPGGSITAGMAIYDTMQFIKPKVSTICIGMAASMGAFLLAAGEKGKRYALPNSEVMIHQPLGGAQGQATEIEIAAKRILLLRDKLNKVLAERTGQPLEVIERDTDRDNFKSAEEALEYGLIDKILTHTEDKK
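ClpP 10 microg/mL final, pH 8 Tris/KCl buffer with BSA, glycerol, Tween-20; compound pinned in; FRET-FV substrate; RT 20 min; Ex320/Em430; ΔFRET vs ADEP 5.8 microM, DMSO, no enzyme.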
Numbers without * were called inactive; ? = inconclusive; · = no result given; & = joins results of further samples; [ ] = another dose, or the depositor's remark.

Compound	CtBP-E1A inh	Sfp PPTase inh	Menin-MLL FL inh	gsp agonist	TRPV1 PAM	ClpP mod	gsp antag
CC(C)(C)[C@@H]1C=C(C(=O)N2CCN(Cc3ccccc3)CC2)O[C@H](OCCCCO)C1	6	12%	-6.1	·	-4	1.7%	1%
Cn1c(=O)c2cc(S(=O)(=O)NC(C(=O)NCc3ccccn3)c3ccccc3)ccc2n(C)c1=O (configuration not stated)	1	20%	2.1	9%	-5	-11%	3%
COCCNc1ccc(S(=O)(=O)N2CCCC2)cc1[N+](=O)[O-]	2	25%	-3.0	-25%	11	·	9%
Cc1cc(C)n(-c2ccnc3cc(Cl)ccc23)n1	·	6%	3.5	-28%	4	2.1%	-3%
O=C(COC(=O)C1=COCCO1)Nc1ccccc1OC(F)F	-3	22%	1.5	16%[15.4 µM]	4	·	-1%
O=C(NNC(=S)Nc1cccc2ccccc12)c1cccc(Br)c1	-10	11%	4.0	-32%[inhibitor]	-6	6.4%	?
O=C(Nc1ccc(O)cc1)c1ccc2c(c1)C(=O)N(Cc1ccco1)C2=O	-18	-12%	0.2	-20%	-4	-1.0%	-18%
COc1cc(CCCN2C(=S)NC[C@@H]2CC2CCCCC2)cc(OC)c1OC	0	10%	2.0	·	-17	0.3%	4%

Not a retest: entries from further up.
Compound	CtBP-E1A inh	Sfp PPTase inh	Menin-MLL FL inh	gsp agonist	TRPV1 PAM	ClpP mod	gsp antag
O=C(NNC(=S)Nc1cccc2ccccc12)c1cccc(Br)c1	-10	11%	4.0	-32%[inhibitor]	-6	6.4%	?
O=C(Nc1ccc(O)cc1)c1ccc2c(c1)C(=O)N(Cc1ccco1)C2=O	-18	-12%	0.2	-20%	-4	-1.0%	-18%
COc1cc(CCCN2C(=S)NC[C@@H]2CC2CCCCC2)cc(OC)c1OC	0	10%	2.0	·	-17	0.3%	4%

Following part
Compound	CtBP-E1A inh	Sfp PPTase inh	Menin-MLL FL inh	gsp agonist	TRPV1 PAM	ClpP mod	gsp antag
CC(=O)OC[C@H]1O[C@@H](O/N=C/C[C@@H]2C=C[C@H](OC(C)=O)[C@@H](COC(C)=O)O2)[C@H](OC(C)=O)[C@@H](OC(C)=O)[C@@H]1OC(C)=O	·	0%	4.9	·	5	·	·
COc1ccccc1OCc1nc2ccccc2[nH]1	2	4%	5.1	-16%	0	-0.4%	10%
O=C(c1cccs1)N1CCC(N2CCN(c3ccccc3)CC2)CC1	3	?	-1.4	-21%	0	-1.8%	-8%
CC(=O)Nc1ccc(/C=N/NC(=O)c2cc3cc(C)ccc3nc2C)cc1	-15	-1%	3.2	-14%	-5	-1.0%	-3%
O=C(Nc1ccc(CN2CCOCC2)cc1)c1ccc(F)cc1	9	8%	-0.8	-7%	-5	0.1%	-1%
Cc1ccc(SCCC(=O)Nc2ccccc2Br)cc1	·	-19%	2.2	-82%[inhibitor]	-21	0.2%	-6%
CCNC(=S)NNC(=O)c1nn(C)c(C)c1Cl	·	-6%	0.4	-36%[inhibitor]	-3	0.1%	10%
Cc1cccc(CN2C(=O)c3ccccc3Sc3ccc(C(=O)NCCCN4CCOCC4)cc32)c1	-7	2%	·	-50%[inhibitor]	16	1.3%&-3.3%	-7%

Following part
Compound	CtBP-E1A inh	Sfp PPTase inh	Menin-MLL FL inh	gsp agonist	TRPV1 PAM	ClpP mod	gsp antag
Cn1c(=O)[nH]c(=O)c2c1nc(N1CCN(c3ccccc3)CC1)n2CCSc1ncccn1	4	25%	-2.4	10%	16	-2.0%	-15%
Cc1ccc2nc(SCc3cn4cccnc4n3)[nH]c2c1	0	4%	4.8	-4%	16	-1.9%	8%
CN(CC(=O)Nc1cccc(F)c1)CC(=O)Nc1cccc([N+](=O)[O-])c1	-3	6%	1.5	-1%[15.4 µM]	-10	0.6%	3%
COc1ccccc1N1CCN(S(=O)(=O)c2c(C(=O)N3CCOCC3)c(C)n(C)c2C)CC1	1	12%	3.1	-2%	1	0.0%	24%
O=C(O)COc1ccccc1/C=N/NC(=O)c1cc2ccccc2cc1O	-2	?	8.8	?	·	0.2%	?
CC(C)CC(=O)N1CCN(S(=O)(=O)c2ccc(C3CCCCC3)cc2)CC1	-8	·	·	3%	-2	0.1%	-4%
C=C(C)COc1ccc(-c2[nH]ncc2Oc2ccccc2OCC)c(O)c1	0	2%	-0.9	2%	-3	-4.1%	-16%
Cc1c(NC(=O)c2ccc(S(=O)(=O)Nc3ccccc3F)cc2)c(=O)n(-c2ccccc2)n1C	2	·	·	3%	·	0.8%	5%

Remaining list, next part.
Compound	CtBP-E1A inh	Sfp PPTase inh	Menin-MLL FL inh	gsp agonist	TRPV1 PAM	ClpP mod	gsp antag
CSc1ccc(C(=S)N2CCN(Cc3ccccc3)CC2)cc1	-27	14µM*	0.9	10%	-4	2.9%	2%
CCNC(=S)N/N=C/c1ccc(F)cc1	·	-1%	1.5	·	0	·	·
Cc1ccn2c(=O)nc(SCC(=O)NCc3ccccc3Cl)nc2c1	-4	·	·	-4%	-24	?	1%
NC(=O)c1ccc(NCCCN2CCOCC2)c([N+](=O)[O-])c1	-3	4%	3.7	?	1	0.0%	6%
C#CCSc1nnc(-c2cc3c(C(F)(F)F)nn(C)c3s2)n1C	-4	0%	5.4	7%	·	-4.5%	-2%
Cc1cccc(CN2CCc3c([nH]c4ccccc34)C2)c1	-20	-9%	3.7	-3%	-3	·	2%
CCOc1cc(C(=O)NCc2ccncc2)cc(OCC)c1OCC	10	3%	4.2	19%	8	-0.9%	-6%
COCCCn1c(CCC(=O)O)ccc1-c1cccs1	-4	?	-1.9	0%	-1	?	3%[15.4 µM]

The list continues.
Compound	CtBP-E1A inh	Sfp PPTase inh	Menin-MLL FL inh	gsp agonist	TRPV1 PAM	ClpP mod	gsp antag
Cn1c(=O)oc2cc(S(=O)(=O)N3CCC(C(=O)NCCc4ccccc4)CC3)ccc21	4	1%	-4.6	-21%	2	0.3%	0%
Cc1ccc2[nH]c3c(=O)n4c(nc3c2c1)SCC4	-18	-9%	4.5	?	9	·	-8%
CC1CC(C)CN(C(=O)Cn2ncc3c([nH]c4ccccc43)c2=O)C1 (configuration not stated)	2	10%	3.0	-72%[inhibitor]	0	-24%	5%
O=C(c1ccccc1CCc1ccccc1)N1CCN(c2ccccn2)CC1	-5	2%	0.7	-49%[inhibitor]	9	-23%	?
COc1ccc(CN(CC(=O)NC2CCCCC2)C(=O)CCC(=O)Nc2nccs2)cc1	3	5%	-8.5	-34%[inhibitor]	3	·	5%
COc1ccc(CNC(=O)CCC(=O)Nc2nnc(C(C)C)s2)cc1	0	14%	2.7	0%[15.4 µM]	-4	·	-1%
O=C(CN1C(=O)/C(=C/c2ccc(F)cc2)SC1=S)N1CCN(CCc2ccccn2)CC1	-19	4%	·	15%	12	2.3%	?
COc1ccc(NC(=O)C2(c3ccc(NC(=O)c4ccc(OC(C)=O)cc4)cc3)CCCC2)cc1	-12	4%	5.3	10%	-7	-14%	8%

Following part:
Compound	CtBP-E1A inh	Sfp PPTase inh	Menin-MLL FL inh	gsp agonist	TRPV1 PAM	ClpP mod	gsp antag
Cc1ccc2c(C)c(C(=O)NCCN3CCCC(O)C3)oc2c1C (configuration not stated)	·	11%	·	-11%	?	-12%	5%
O=C(Nc1ccc2c(c1)OCO2)OCc1ccccc1	3	15%	1.4	-30%	-15	1.0%	-13%
COc1ccc(C(C(=O)NC(C)(C)C)N(C(=O)CCC(=O)Nc2ccccn2)C2CCCCC2)cc1 (configuration not stated)	1	-1%	-2.2	-37%[inhibitor]	0	·	0%
CN1CCCC1CCNc1ccc2sc3ccccc3c(=O)c2c1 (configuration not stated)	?	·	·	·	·	-9.9%	0%
CCOC(=O)c1c(C)[nH]c(C(=O)COc2ccc3ccc(=O)oc3c2)c1C	3	·	·	6%	·	3.5%	-5%
O=C(CNC(=O)c1ccc2c(c1)OCCO2)N/N=C/c1ccc(O)cc1O	-90*	10%	1.0	7%	2	-13%	5%
Nc1ccc(-c2nc3cc(N)ccc3n2CCO)cc1	·	3%	-2.9	?	-12	3.3%	-2%
CCC/C=C/c1ccc(CN2C(C)C(=O)N(Cc3cn(CCC4OCCO4)nn3)CCS2(=O)=O)cc1 (configuration not stated)	?	·	·	-1%	·	-0.4%	·

Next structures.
Compound	CtBP-E1A inh	Sfp PPTase inh	Menin-MLL FL inh	gsp agonist	TRPV1 PAM	ClpP mod	gsp antag
COc1ccccc1CNc1ccc2c(c1)CCC2	-5	2%	?	0%	?	·	6%
O=[N+]([O-])c1cccc2nc(-c3ccccc3)c(-c3ccccc3)nc12	?	-12%	2.5	-3%[15.4 µM]	2	0.9%	-6%
Cc1cc2ncn(S(=O)(=O)c3ccc(S(=O)(=O)N4CCOCC4)cc3)c2cc1C	3	6%	4.7	-2%	6	-2.4%	-2%
O=C(NC(=S)Nc1cc([N+](=O)[O-])ccc1O)c1ccc2c(c1)OCO2	-22	-30%	1.6	4%[15.4 µM]	2	-1.5%	?
Cc1ccc(N(CN2CCCC2=O)C(=O)c2ccccc2)cc1	3	17%	0.4	-7%[15.4 µM]	-13	-1.0%	10%
CC1CCCC(NC(=O)CCCn2c(=O)[nH]c3cc(Cl)ccc3c2=O)C1C (configuration not stated)	0	13%	-0.8	12%	?	-7.4%	30%
O=C(NC1CCCc2ccccc21)c1ccc(=O)[nH]c1 (configuration not stated)	-1	-3%	1.2	2%	-9	-4.8%	8%
O=S(=O)(NCc1cccnc1)c1ccc(Cl)c(Cl)c1Cl	-1	6%	1.7	-6%	-9	-2.9%	-1%
CSc1nc(-c2ccccc2)nc(NC(=O)c2ccccc2)c1C(C)=O	0	4%	0.4	-34%[inhibitor]	1	1.7%	-20%
